Bioassay records: PubChem, ICCB-Longwood Screening Facility, Harvard Medical School
Choline anaer gr: inhibitors of anaerobic choline-dependent gram-negative bacterial growth; AID 1963822; 0.2% of 55,000 active; calls only; Gram-negative bacterium anaerobic choline minimal medium, absorbance growth; stronger effect = lower value; many inactives read as strong as hits in the columns shown;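 active = growth z-score on choline under -2 at 7 or 20 h with little or no fall on glycerol, limits in tiers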;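 note: stock transfer was 300 nL into about 50 µL; the organism is E. coli; final concentration not given here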
Choline anaer gr early: second read-out of Choline anaer gr, no call of its own (marks repeat the call); z-score; measured here: choline growth z-score, timepoint 1;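 score of optical density at 7 h as mean of two plates; lower means less growth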
Active calls of the source: *; i = inactive; & = joins results of further samples. Not all compounds are listed; the hit share may differ from the screen's.

A first look (two entries):
Choline anaer gr	Choline anaer gr early	molecule
i	1	CCCCN(CC)C(=O)C1CCCN(c2ncc(-c3ccc(F)cc3)cn2)C1 (stereo not given)
i	-0.71	CCC(C)NC(=O)CSCc1noc(-c2ccc(C)cc2)n1 (stereo not given)

Main list, previewed entries included:
Choline anaer gr	Choline anaer gr early	molecule
i	1	CCCCN(CC)C(=O)C1CCCN(c2ncc(-c3ccc(F)cc3)cn2)C1 (stereo not given)
i	-0.71	CCC(C)NC(=O)CSCc1noc(-c2ccc(C)cc2)n1 (stereo not given)
i	0.32	CCOC(=O)c1nc(Nc2ccc(OC)cc2)c2c(C)c(C)n(-c3cccc(Cl)c3)c2n1
i	-0.66	Cc1csc(-c2cc(S(=O)(=O)Nc3cc(F)ccc3Cl)cn2CC(=O)N2CCCC2)n1
i	-0.15	CC(Sc1nnc(-c2ccncc2)o1)C(=O)N1CCc2ccccc21 (stereo not given)
i	-1.5	COc1ccc(CNC(=O)CCCN2C(=O)c3cccnc3Oc3ccc(Cl)cc32)cc1
i	0.41	CCOc1ccc(S(=O)(=O)[C@H]2CS(=O)(=O)C[C@@H]2NCCc2c[nH]c3ccccc23)cc1
i	-0.72	O=c1c2oc3ccccc3c2nc(SCc2nc(-c3ccccc3)no2)n1C1CCCC1
i	0.46	COc1ccc(-c2cnc(NC(=O)NC(C)C)n2C)cc1
i	-0.22	CCc1ccccc1NS(=O)(=O)c1cc(-c2nc(C)cs2)sc1C
i	-1.1	O=C(c1cn(-c2ccc(Cl)cc2)nn1)N1CCCCC1
i	0.39	Cc1nn(C)cc1C(C)NC(=O)c1cc2c(s1)CN(C1CC1)C2 (stereo not given)
i	0.9	COc1cccc(Oc2ccnc(-c3ccc(C(=O)NCc4ccc(Br)cc4)cc3)n2)c1
i	-0.12	CC(C)c1ccc(N2C(=O)c3cc4ccsc4n3CC2(C)C(=O)NC2CCCCC2)cc1 (stereo not given)
i	-0.08	O=C(Nc1cc(-c2cccc(F)c2)no1)C1CCCN(c2nc3cccnc3s2)C1 (stereo not given)
i	2.6	COc1ccc(NC(=O)CCCc2nc(-c3cc4ccc(C)cc4[nH]c3=O)no2)cc1
i	0.56	Cn1c(=O)c(-c2noc(CCC(=O)Nc3ccc(F)cc3F)n2)nn(-c2ccccc2)c1=O
i	1.9	O=S(=O)(c1ccccc1F)N1CCn2cccc2C1c1ccccc1F (stereo not given)
i	-0.3	CS(=O)(=O)Nc1cc(C(=O)N2CCN(c3ccccn3)CC2)ccc1N1CCNCC1
i	-0.27	CCCCNC(=O)CCc1nc(N2CC(C)CC(C)C2)c2c(C)noc2n1 (stereo not given)
i	0.74	COc1ccc(CNC(=O)C2CCCN(S(=O)(=O)c3cc(-c4noc(C)n4)ccc3Cl)C2)cc1 (stereo not given)
i	0.4	Cc1cccc(-c2nc3c4c(C)c(C)n(Cc5ccccc5)c4ncn3n2)c1
i	1.2	COC(=O)Cn1cnc2c1c(=O)n(C)c(=O)n2C
i	-0.09	NC(=O)CCC1COc2ccccc2O1 (stereo not given)
i	-0.13	Cc1nc(Nc2ccc(NC(=O)C3CCCC3)cc2)cc(N2CCCC2)n1
i	0.23	CCOCCCNC(=O)c1cccc(Nc2ncc(-c3cccc(C)c3)cn2)c1
i	1.2	O=S(=O)(c1ccc(F)cc1)N1CCN(c2nc3ccccc3n3cccc23)CC1
i	1.1	COc1cc(NC(=O)c2cccc(-c3cc(Oc4ccccc4OC)ncn3)c2)cc(OC)c1
i	-0.28	NS(=O)(=O)c1ccc(CCNC(=O)C2=NS(=O)(=O)c3ccccc3N2)cc1
i	1.4	COc1ccc2[nH]c(C(=O)NCc3cccc(C)c3)c(NC(=O)c3ccccc3)c2c1
i	0.41	Cc1cc(NCC(C)C)n2ncc(-c3ccc(F)cc3)c2n1
i	-0.19	COCCNC(=O)C1CCCN(c2cc(=O)n(C)c(=O)n2C)C1 (stereo not given)
i	1.7	Cc1ccccc1Nc1nc(Nc2ccccc2)c2cnn(C)c2n1
i	-0.55	Cc1noc2ncn(CC(=O)NC(C)C)c(=O)c12
i	-0.28	NC(=O)C1(N2CCCCC2)CCN(C(=O)c2c(-c3ccccc3)nnc3ccccc23)CC1
i	-0.37	Nc1[nH]nc2nc3ccccc3nc12
i	0.62	COCCCn1c(SCc2cccc(Cl)c2)nc2c(-c3ccccc3)cn(C)c2c1=O
i	0.79	O=C(c1cnc2sc3c(n2c1=O)CCC3)N1CCN(c2ncccn2)CC1
i	-0.47	CCOc1ccc(NC2=NC(c3cc(OC)ccc3OC)n3c(nc(C)cc3=O)N2)cc1 (stereo not given)
i	0.32	Cc1oc2ncnc(N3CCC(C(=O)Nc4ccccc4Br)CC3)c2c1C
i	0.71	CC1CCN(C(=O)C2CCCN(c3nnc(-n4cccc4)s3)C2)CC1 (stereo not given)
i	-0.39	CCN(CC)CCCNS(=O)(=O)c1cc(-c2cc(C)no2)cs1
i	1.6	Cc1ccc(S(=O)(=O)NC2=NCN(CCc3ccccc3)CN2)cc1
i	0.71	CCN(CC)CC(O)Cn1c2c(c3cc(C)ccc31)CCCC2=O (stereo not given)
i	0.22	O=C(O)c1cc(N(Cc2ccccc2O)Cc2cc(O)ccc2O)ccc1O
i	0.08	O=S1(=O)C[C@H](NC2CCCC2)[C@@H](S(=O)(=O)c2ccc(F)cc2)C1
i	0.34	O=C(Nc1ccc(F)cc1)c1ccc(S(=O)(=O)c2ccc(Br)cc2)nc1
i	-0.65	C=CCn1c(=O)c(=O)n(Cc2ccc(C(=O)N3CCOCC3)cc2)c2ccccc21
i	1.5	O=C(NCc1ccccn1)c1cc2c(Cl)ccc3c2n1CCO3
i	0.98	O=C(c1ccc2ccccc2c1)N1CCN(c2cccc(Cl)c2)CC1

More results:
Choline anaer gr	Choline anaer gr early	molecule
i	0.84	NC(=O)CSc1nnc2c3ccccc3nc(-c3ccccc3)n12
i	-0.36	COc1ccccc1NC(=O)CCCc1nc(-c2cc3ccc(C)cc3[nH]c2=O)no1
i	-0.21	Cc1nc(N(C)C)cc(N2CCN(S(C)(=O)=O)CC2)n1
i	0.21	COC(=O)c1cc(Cl)ccc1NC(=O)CSc1ncc(S(=O)(=O)c2ccc(Br)cc2)c(=O)[nH]1
i	-1	CNC(=O)c1cc(CN2CCCC(C)C2)on1 (stereo not given)
i	0.43	O=C1c2ccccc2C(=O)N1CCc1c[nH]c2ccc(OCc3ccccc3)cc12
i	0.26	CCSCCNC(=O)c1nc(-n2cnnc2)ccc1Br
i	2	O=C(Nc1ccc(Br)cn1)c1nc2ccccc2nc1N1CCCCC1
i	0.59	S=c1[nH]c(-c2ccccc2)cn1-c1ccccc1
i	0.39	Nc1nc(N2CCN(Cc3ccc4c(c3)OCO4)CC2)ncc1S(=O)(=O)c1ccc(Cl)cc1
i	0.43	O=C(CCn1c(N2CCCC2)nc2ccsc2c1=O)NCCc1c[nH]c2ccccc12
i	-0.49	COc1ccc(-c2cnn3c(N)c(-c4ccc(Cl)cc4)cnc23)cc1OC
i	1.4	CCOC(=O)C1CCCN(S(=O)(=O)c2cc(-c3ccc(=O)[nH]n3)cc(C)c2C)C1 (stereo not given)
i	0.09	Cc1ccc(N(Cc2nc3nc(C)cc(C)n3n2)S(=O)(=O)c2ccccc2)cc1
i	-0.63	Cc1sc(-c2cc(C(F)(F)F)on2)cc1S(=O)(=O)N1CCC2(CC1)OCCO2
i	0.35	CCOC(=O)CC1=CC(=O)N(CC(=O)NC(C)CC)c2ccccc2N1 (stereo not given)
i	-0.08	CCCNC(=O)c1ccc(Cn2c(SCC(=O)Nc3ccc(CC)cc3)nc3ccccc3c2=O)cc1
i	0.95	Cn1nc(-c2nc(C3CC3)no2)c2c1CCN(S(=O)(=O)c1ccccc1Cl)C2
i	-1.3	CCN(CCCNC(=O)C1CCCN(C(=O)c2cccc(Cl)c2)C1)c1ccccc1 (stereo not given)
i	0.39	CCCCNC(=O)c1ccc2c(c1)N(Cc1ccccc1)C(=O)CS2=O (stereo not given)
i	-0.21	O=C(Cn1c(=O)c2cccnc2n(-c2ccccc2)c1=O)Nc1cccc(Br)c1
i	-0.01	Cc1c(C(=O)O)c2cc(NS(=O)(=O)N(C)C)ccc2n1S(=O)(=O)N(C)C
i	-1.7	CCN1CCN(C(=O)C2=Cc3ccccc3OC2)CC1
i	-0.78	CCOc1ccc(S(N)(=O)=O)cc1-c1nc(C)no1
i	0.62	c1ccc(OCc2nc3c4ccccc4ncn3n2)cc1
i	1.1	Cc1cc(-n2c(C)nc3ccccc3c2=O)ccc1NC(=O)CC(C)(C)C
i	-0.06	CC(C(=O)Nc1ccc2c(c1)nc(CCc1ccccc1)n2C)N1C(=O)COc2ccccc21 (stereo not given)
i	0.42	CC(=O)Nc1ccc(S(=O)(=O)NCc2cccn2Cc2cccc(F)c2)cc1
i	-1.5	CC(=O)Nc1ccc(C)cc1S(=O)(=O)Nc1ccc(-c2ccc3cc(C)ccc3n2)cc1
i	-0.97	COc1ccc(NC(=O)CCc2nc3sc4c(c3c(=O)[nH]2)CCCC4)cc1OC

Complete entries, looked up by structure. Values in the order: Choline anaer gr | Choline anaer gr early
Profile of Nc1nc(N2CCN(Cc3ccc4c(c3)OCO4)CC2)ncc1S(=O)(=O)c1ccc(Cl)cc1 = i | 0.39
Profile of O=C(CCn1c(N2CCCC2)nc2ccsc2c1=O)NCCc1c[nH]c2ccccc12 = i | 0.43
Profile of Cn1c(=O)c(-c2noc(CCC(=O)Nc3ccc(F)cc3F)n2)nn(-c2ccccc2)c1=O = i | 0.56
Profile of Cc1cc(-n2c(C)nc3ccccc3c2=O)ccc1NC(=O)CC(C)(C)C = i | 1.1
Profile of O=S(=O)(c1ccccc1F)N1CCn2cccc2C1c1ccccc1F (stereo not given) = i | 1.9

Following part
Choline anaer gr	Choline anaer gr early	molecule
i	0.85	O=C(c1cc(C2CC2)on1)N1CCc2ccccc2C1
i	0.19	O=C(CN1C(=O)CC(c2ccccc2)=Nc2ccccc21)Nc1ccc(Br)cc1
i	-0.16	Cc1nc(CNC(=O)[C@H]2CSCN2C(=O)Nc2ccccc2)cs1
i	0.03	Cc1csc(-c2cc(S(=O)(=O)Nc3ccc(F)cc3Cl)cn2CC(=O)N2CCCC2)n1
i	-0.16	Cc1cccc(C(=O)Nc2ccc3nc(N4CCCN(C)CC4)cc(C(=O)O)c3c2)c1
i	0.33	CCc1cc(Sc2ccccc2NC(=O)C2CCCCC2)n2nc(C)nc2n1
i	0	O=C1CN(Cc2ccc(Br)cc2)S(=O)(=O)c2ccccc2N1Cc1ccc(F)cc1
i	0.69	CN(C)CCc1c[nH]c2ccc(C[C@H]3COC(=O)N3)cc12
i	-0.47	Clc1ccc(-c2noc(-c3ccc(Nc4ccc5c(c4)OCCO5)nn3)n2)cc1
i	-0.48	CCOC(=O)c1ccc(NC(=O)c2nn(-c3ccc(C)cc3)c(=O)cc2OC)cc1
i	0.29&-2.3	CN(C)CCCN1c2ccccc2Sc2ccc(C(F)(F)F)cc21
i	0.19	Cc1nc(N(C)C)cc(N2CCN(C(=O)Nc3ccc4c(c3)OCCO4)CC2)n1
i	-1.1&-0.14&0.54&0.21&-1.1	Nc1nc2ccc(OC(F)(F)F)cc2s1
i	-0.29	Cc1cc(C)cc(-c2cc3nc(C)cc(N4CCC(C(=O)NCCC(C)C)CC4)n3n2)c1
i	-0.29	COc1ccc(Cl)cc1Nc1ncnc2sc(C)c(S(=O)(=O)N3CCCCC3)c12
i	-1.2	CCC(=O)Nc1cc2c(cc1SC1CCCCC1)n(C)c(=O)n2C
i	0.35	CCOC(=O)c1ccc(NC(=O)c2cc(C)nc3c2c(=O)n(C)c(=O)n3C)cc1
i	-1.4	O=C(NCCc1csc(-c2cccs2)n1)C1CCN(C(=O)Cc2cccs2)CC1
i	-0.78	CCc1cc(C2CCCN2C(=O)NCC(C)C)on1 (stereo not given)
i	-2.3	NCC1CCC(C(=O)O)CC1 (stereo not given)
i	-0.45	CCCNc1nc2ccccc2nc1C(=O)Nc1ccc2c(c1)c1ccccc1n2CC
i	-1.2	CCCOc1ccc(-c2nn3c(=O)c(NC(=O)c4ccccc4C)cnc3o2)cc1
i	-1.6	Fc1ccc(-c2ccc(CNCc3ccccn3)o2)cc1
i	-0.63	CCN1CCN(CCCNC(=O)Nc2c[nH]c3ccc(C)cc3c2=O)CC1
i	0.26	Cc1nc(N2CCN(c3ccccc3)CC2)[nH]c(=O)c1CCC(C)C
i	-0.95	CC1CCN(C(=O)COc2ccc(-c3nc(-c4ccccc4)no3)cc2)CC1
i	-0.53	CCN(CC)S(=O)(=O)c1ccc2c(c1)nc(CN1CCN(C(=O)Nc3ccc(C)cc3)CC1)n2C
i	0.62	CC1Oc2ccc(S(=O)(=O)N3CCC(C(=O)N4CCN(c5ccccc5)CC4)CC3)cc2NC1=O (stereo not given)
i	-0.08	Cc1noc2c1C(c1ccsc1)C1=C(CC(c3ccc(O)cc3)CC1=O)N2 (stereo not given)
i	0.31	CCCNC(=O)C1CCCN(c2cc(=O)n(C)c(=O)n2CC)C1 (stereo not given)

Three of the compounds above, bar-delimited.
SMILES | Choline anaer gr | Choline anaer gr early
Fc1ccc(-c2ccc(CNCc3ccccn3)o2)cc1 | i | -1.6
CCN1CCN(CCCNC(=O)Nc2c[nH]c3ccc(C)cc3c2=O)CC1 | i | -0.63
Cc1nc(N2CCN(c3ccccc3)CC2)[nH]c(=O)c1CCC(C)C | i | 0.26

Following part.
Choline anaer gr	Choline anaer gr early	molecule
i	0.45	Cc1ccc(-c2cc(N3CCN(C(=O)c4cc(C)cc(C)c4)CC3)ncn2)cc1
i	-0.52	O=c1cc(CSc2nc(NCc3ccc(Cl)cc3)c3ccccc3n2)nc2ccc(Cl)cn12
i	0.48	Cc1csc(-c2cc(S(=O)(=O)Nc3ccc(F)c(F)c3)cn2CC(=O)N2CCCC2)n1
i	-1.1	CCCc1cc(C2CCCN2Cc2ccc(Br)cc2)no1 (stereo not given)
i	0.04	O=C(NCc1c(-c2ccc(F)cc2)nc2n1CCS2)c1cccc(Br)c1
i	1.6	CCOC(=O)c1ccccc1NC(=O)Cn1c(=O)c(CNc2ccc(C)cc2)cc2ccc(OC)cc21
